Screens as filed in PubChem BioAssay.
E coli growth: blocks Escherichia coli growth; AID 1053175; actives 0.21% (n = 330,000); OD600 absorbance (no concentration beside the values); OD600, 23 h; stronger effect = lower value;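 active = OD600 absorbance below the run mean of sample wells minus 3.6 SD, in any replicate, cut at about 0.56 in these data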;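 note: stock transfer was 300 nL into about 60 µL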
HNF4A DNA FP: change in binding of human HNF4 alpha to DNA. actives 0.3% (n = 360,000). HNF4a-FITC DNA binding, fluorescence polarization, 1 h. activity change, % at 10 µM. P41235; in the data active = activity change above about 30%, passing the limit was not always enough;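 note: controls were the assay level and a saturating level of protein; the project sought stronger binding though the title names inhibitors; some compounds called inactive have numbers as strong as hits; positive values seem to mean higher polarization but the record does not say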
B2AR ag: activates human beta-2 adrenergic receptor causing internalization; P07550; Am2.2-beta2AR cells, FAP receptor internalization, flow cytometry; reference of the scale not given here; response, % (no concentration beside the values); actives 0.43% (n = 340,000); AID 504454;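 active = response above a set limit, near 3 SD of response in nonfluorescent compounds, cut at about 42% in these data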;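 note: stock transfer was 100 nL into about 11 µL; a reference agonist was the positive control; negative values mostly stem from fluorescent compounds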
UCH37 DUB inh: blocks the human deubiquitinase UCH37; Q9Y5K5; purified proteasome/UCH37, Ub-AMC cleavage fluorescence; inhibition, % (concentration not given with the values); actives 0.33% (n = 330,000);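 active = mean of two replicates above 20%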;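 note: 0% = compound-free wells with enzyme and 100% = wells lacking proteasome; stock transfer was 100 nL into about 20 µL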
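system = Proteasome-associated human UCH37 deubiquitinase | amount = 0.15 nM proteasome as dispensed | medium = pH 7.4 Tris-HCl (50 mM) with ovalbumin, ATP-MgCl2, DTT | incubation = 30 min preincubation with enzyme, 25 min cleavage at room temperature | detection = AMC fluorescence 355/460 nm | read-out basis = percent inhibition | controls = no-proteasome and no-compound wells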
Bfl-1 A1 inh: inhibitors of the anti-apoptotic protein A1, read as caspase activation; MEF A1-2A-BIM cells, Caspase-Glo 3/7 luminescence, 3 h; percent of clofoctol response, vehicle zero; caspase activation, % (no concentration beside the values); actives 0.066% (n = 330,000); AID 2462;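 active = over half of replicate activation scores above 10%, or exactly half above 10 with the replicate mean above 10; inconclusive = replicate mean below 10 yet half the replicates above 10; inactive = over half of replicates below 10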;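 note: wells of about 30 µL received 50 nL stock; many hits fall short of the cut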
LANA-H2B inh: blocks KSHV LANA binding to histone H2A/H2B. cell-free LANA-H2A/H2B peptide, fluorescence polarization. inhibition, % (no concentration beside the values). Q9QR71. actives 0.6% (n = 320,000); in the data active = inhibition mostly above about 10%, no sharp cut-off; inactive = mostly below about 6.7%;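 note: stock transfer was 7.5 nL into about 10 µL; 0% = median of vehicle wells and 100% = median of positive control wells; one replicate is shown; the record names a cut of 25% in any replicate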
Target sequence (Q9QR71 whole entry, looked up): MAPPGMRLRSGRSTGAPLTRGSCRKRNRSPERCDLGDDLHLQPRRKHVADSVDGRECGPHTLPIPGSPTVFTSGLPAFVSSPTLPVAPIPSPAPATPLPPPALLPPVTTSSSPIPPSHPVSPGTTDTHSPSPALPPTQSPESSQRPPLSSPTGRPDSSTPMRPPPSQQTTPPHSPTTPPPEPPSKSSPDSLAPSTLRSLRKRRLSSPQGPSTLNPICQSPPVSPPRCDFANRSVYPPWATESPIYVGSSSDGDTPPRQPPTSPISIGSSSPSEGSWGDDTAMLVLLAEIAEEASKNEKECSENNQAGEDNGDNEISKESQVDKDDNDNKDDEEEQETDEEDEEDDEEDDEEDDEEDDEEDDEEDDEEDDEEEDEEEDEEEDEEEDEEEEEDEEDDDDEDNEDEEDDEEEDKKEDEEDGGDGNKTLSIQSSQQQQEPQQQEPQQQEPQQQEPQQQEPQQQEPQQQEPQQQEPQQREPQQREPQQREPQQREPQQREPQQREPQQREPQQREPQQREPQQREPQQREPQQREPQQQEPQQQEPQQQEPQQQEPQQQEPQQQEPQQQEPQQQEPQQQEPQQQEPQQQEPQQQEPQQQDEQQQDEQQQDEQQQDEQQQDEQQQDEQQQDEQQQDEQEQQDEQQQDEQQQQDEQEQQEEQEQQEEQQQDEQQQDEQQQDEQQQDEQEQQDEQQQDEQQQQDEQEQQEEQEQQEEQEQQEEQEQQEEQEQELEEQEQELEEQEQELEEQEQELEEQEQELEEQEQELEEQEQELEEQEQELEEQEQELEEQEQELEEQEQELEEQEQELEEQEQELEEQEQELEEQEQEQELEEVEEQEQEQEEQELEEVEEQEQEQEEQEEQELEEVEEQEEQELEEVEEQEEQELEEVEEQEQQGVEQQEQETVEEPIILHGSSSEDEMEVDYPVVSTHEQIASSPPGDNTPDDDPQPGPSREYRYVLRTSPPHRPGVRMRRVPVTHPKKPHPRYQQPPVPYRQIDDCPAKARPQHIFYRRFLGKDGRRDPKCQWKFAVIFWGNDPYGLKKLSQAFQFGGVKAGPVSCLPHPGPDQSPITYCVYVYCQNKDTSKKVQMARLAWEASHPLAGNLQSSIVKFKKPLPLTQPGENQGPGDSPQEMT
Vif TR-FRET: inhibitors of Vif binding to APOBEC3G peptide, primary screen, biochemical, TR-FRET, GST-Vif 1-94, biotin-A3G peptide, dose response retest (AID 1117319); TR-FRET GST-Vif / biotin-A3G peptide binding; higher % means a stronger effect; test concentration not given here; strong numbers were not always called active; inhibition, %; hits with a dose series show IC50 in µM; actives 0.57% (n = 260,000);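 active = above the screen mean plus three standard deviations and confirmed in dose response; inconclusive = results disagree or hit not tested in dose response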;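 note: Vif residues 1-94 fused to GST binding biotinylated APOBEC3G peptide 110-148; 0% = full assay without inhibitor and 100% = GST in place of GST-Vif; retest series ran down from 100 µM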
The depositor's hits bear a star; i = inactive; ? = inconclusive; . = no result given.

A first look:
molecule,E coli growth,HNF4A DNA FP,B2AR ag,UCH37 DUB inh,Bfl-1 A1 inh,LANA-H2B inh,Vif TR-FRET
Cc1ccc(S(=O)(=O)CCc2nc3ccccc3s2)cc1C,0.679,-1.1,-3.8,-0.2,1.0,-1.1,-7.4%
CCOc1ccccc1OCC(=O)Nc1ccc(N2CCCCC2)cc1,0.67,2.9,-8.1,-0.2,-0.3,3.6,12.3%

Main list, repeating the preview:
molecule,E coli growth,HNF4A DNA FP,B2AR ag,UCH37 DUB inh,Bfl-1 A1 inh,LANA-H2B inh,Vif TR-FRET
Cc1ccc(S(=O)(=O)CCc2nc3ccccc3s2)cc1C,0.679,-1.1,-3.8,-0.2,1.0,-1.1,-7.4%
CCOc1ccccc1OCC(=O)Nc1ccc(N2CCCCC2)cc1,0.67,2.9,-8.1,-0.2,-0.3,3.6,12.3%
Cc1c(NS(=O)(=O)c2ccccc2)cc(Cl)c(O)c1C,0.672,-2.9,-3.0,5.1,1.7,-0.9,-0.2%
COc1cc(-c2nnc3sc(Cc4ccc(Cl)cc4)nn23)cc(OC)c1OC,0.706,1.9,4.6,2.9,0.4,3.5,.
CC1=NN(C(=O)c2ccc(Br)cc2)C(O)(c2ccccc2)C1 (stereo not drawn),0.68,-0.5,3.8,2.4,0.4,15.6*,3.5%
Cn1ccnc1-c1nnn(-c2ccc(F)cc2)n1,0.684,3.9,-4.2,0.6,-7.9,-1.6,.
CC(C)c1nnc(NC(=O)c2cccc(NC(=O)C(F)(F)F)c2)s1,0.657,-5.3,-20.8,2.1,0.6,0.9,.
CCCc1cc(=O)[nH]c(SCc2nc3ccccc3o2)n1,0.657,0.3,0.8,4.4,-0.2,5.5,.
CCOc1cc2[nH]c(=S)n(CCCOC)c(=O)c2cc1OCC,0.643,0.1,-3.3,4.0,3.5,0.7,11.8%
CC(OC(=O)c1nc(Cl)ccc1Cl)C(=O)c1ccccc1 (stereo not drawn),0.679,3.0,-5.1,1.0,-0.6,0.9,.
Cc1cc2n(n1)C(c1ccccc1)CC(c1ccc(Br)cc1)=N2 (stereo not drawn),.,-15.2,-17.8,.,0.2,i,?
CC(C)CC1(C(=O)NCc2cc(F)cc(C(F)(F)F)c2)C=CCN1C(=O)c1ccccc1 (stereo not drawn),0.708,1.8,0.8,2.0,0.4,2.8,-5.4%
COC(=O)C1CSc2[nH]c(=O)sc2C1c1ccc(OC)c(OC)c1 (stereo not drawn),0.724,-0.8,0.2,1.1,-0.1,0.1,4.7%
O=C(Nc1cccc([N+](=O)[O-])c1)C1CC(=O)N(C2CCCCC2)C1 (stereo not drawn),0.683,-1.9,-3.4,4.0,1.3,1.3,.
Cc1cc(C(=O)Nn2c(-c3ccc(Br)cc3)nc3ccccc3c2=O)ccc1[N+](=O)[O-],0.683,2.3,1.0,3.6,0.3,0.3,.
COc1cc2ncnc(NCc3ccco3)c2cc1OC,0.713,3.5,0.3,4.0,0.9,2.7,-0.1%
C=C(C)c1cccc(C(C)(C)NC(=O)N(Cc2ccccc2)Cc2ccco2)c1,0.727,-1.7,0.4,1.3,0.0,2.5,6.1%
COc1ccc(CN(C)CC(=O)NCC(=O)Nc2c(C)cccc2C)cc1,0.65,-3.6,-4.0,3.1,-0.1,3.3,13.0%
O=C(Nc1ccccc1C(=O)NC(Cc1ccc(O)cc1)C(=O)O)c1ccccc1 (stereo not drawn),0.706,-0.8,-4.7,2.0,0.2,3.3,.
O=C(C1=C(O)C(=O)N(CCN2CCOCC2)C1c1ccc(Cl)cc1)c1cc2ccccc2o1 (stereo not drawn),0.7,1.8,41.3,7.0,0.4,-2.7,.
COc1ccc(CCCC(=O)NC(C)c2ccccc2)cc1 (stereo not drawn),0.697,-4.7,11.9,2.8,0.6,-3.7,-2.0%
Fc1ccc(Oc2cnc3ccccc3n2)cc1,0.707,4.4,3.2,5.6,-0.3,1.2,3.6%
O=C(COC(=O)CSc1ccccc1)NCCNC(=O)COC(=O)CSc1ccccc1,0.701,-2.0,0.0,0.7,-0.7,0.9,2.4%
O=C(Nc1nc(-c2cccc([N+](=O)[O-])c2)cs1)C(c1ccccc1)c1ccccc1,0.714,-0.4,7.8,0.4,0.1,0.4,12.5%
CN(C)CCCN(C(=O)COc1ccccc1)c1nc2cc3c(cc2s1)OCCO3,0.744,2.2,-0.4,-1.5,0.0,0.4,.
CCn1c(SCC(=O)Nc2ccc(Br)cc2)nc2sc3c(c2c1=O)CCN(C)C3,0.64,6.6,-5.4,-88.0,0.5,1.1,0.4%
CC(C)(C)c1csc(Sc2ccc([N+](=O)[O-])cn2)n1,0.669,5.7,-4.3,3.2,-0.2,-0.5,1.8%
COc1ccc(OCc2cc(C(=O)NCC3CCOCC3)no2)c(Cl)c1,0.694,2.6,4.6,2.5,-1.6,-4.8,.
CCOC(=O)C1CCCN(CC(=O)Nc2cccc(C(C)=O)c2)C1 (stereo not drawn),0.674,-1.5,4.1,-2.6,0.3,-3.6,0.0%
CC(C)CNC(=S)NC1CC2CCC(C1)N2Cc1ccccc1 (stereo not drawn),0.64,3.2,5.0,-1.7,-0.6,2.7,-4.2%
COc1ccc(C(CNC(=O)c2ccc(C)c(S(=O)(=O)N3CCOCC3)c2)N2CCCC2)cc1 (stereo not drawn),0.707,1.7,1.6,4.0,.,.,.
Cc1ccc(-c2nc3ccccc3c(=O)n2Cc2ccccc2)cc1,0.691,-1.2,-16.3,1.6,0.1,3.2,.
COC(=O)C(Cc1cnc(Cl)s1)(C(=O)OC)c1ccccc1[N+](=O)[O-],0.677,-6.9,-5.2,1.7,-2.1,-0.7,32.1%
Cn1cccc1CC(=O)N/N=C/c1ccco1,.,0.3,-13.1,.,-1.2,1.9,?
O=C(O)c1c[nH]c2cc(C(F)(F)F)ccc2c1=O,0.633,0.5,5.7,2.5,0.9,-11.6,-5.2%
O=C(CCC1CC(=O)Nc2ccccc21)NCc1cccnc1 (stereo not drawn),0.728,3.8,4.0,5.8,0.9,2.8,.
COc1cc(/C=C2\C(=N)N3N=C(S(C)(=O)=O)SC3=NC2=O)cc(OC)c1OCCOc1cccc(C)c1,0.696,-0.7,-1.5,5.9,0.0,4.0,5.5%
O=S(=O)(Nc1ccccc1Cl)c1ccc(-c2ccccn2)s1,0.679,0.3,-0.4,5.8,0.1,1.3,.
CC(=O)c1ccc2c3c(cccc13)C(=O)N(c1c(C)nn(C)c1C)C2=O,0.746,-2.7,-3.7,8.5,0.4,5.0,11.0%
O=C(NCCO)C(=O)c1c(-c2ccccc2)cc2ccccn12,0.675,4.5,6.2,10.5,-0.3,3.3,5.4%
O=C(NCc1ccccc1)C(=O)NCC1COc2ccccc2O1 (stereo not drawn),0.723,-2.2,-5.8,3.5,2.9,-0.4,-1.8%
CCOC(=O)c1c(C)sc2c1N(C(C)=O)c1cc(Cl)ccc1S2,0.686,0.8,7.8,2.7,-0.3,-7.1,0.5%
COC(=O)c1cc2c(ccn2C)n1C,0.612,-2.0,-3.6,1.6,-1.6,3.5,3.5%
N=c1c(S(=O)(=O)c2ccc(Br)cc2)cc2c(=O)n3ccccc3nc2n1C1CCCC1,0.738,1.2,-2.4,-11.6,-2.3,-1.6,.
COc1ccc(NC(=O)C2CCC(N3C(=O)C4CCCCC4C3=O)CC2)cc1 (stereo not drawn),0.655,0.2,-1.7,1.8,1.2,-7.7,.
NC(=O)Nc1ccc(C(=O)OCC(=O)N2CCc3ccccc3C2)cc1,0.662,-0.9,3.4,4.1,0.5,-11.1,-5.0%
Cc1ccc(S(=O)(=O)NCC(=O)N(CC(=O)NCC2CCCO2)Cc2ccc(Cl)cc2)cc1 (stereo not drawn),0.635,-4.7,2.3,-1.1,0.4,2.5,.
c1ccc2[nH]c(NCCCN3CCOCC3)nc2c1,0.707,-4.3,-7.2,3.7,0.5,4.5,-1.5%
N#Cc1cn(N2CCCCC2)c(=O)[nH]c1=O,0.674,2.5,-12.4,1.1,1.2,-4.6,-2.4%
CCn1c(COc2cc(C)cc(C)c2)nnc1SCC(=O)N1CCN(c2ccccc2)CC1,0.668,28.0,3.1,0.2,1.4,4.6,-9.8%
CN(C)c1cc(NC(=O)CN2CCOCC2)c2ccccc2n1,0.688,3.6,19.8,-64.7,0.7,4.2,.
COc1ccc(-c2nc(-c3cccc([N+](=O)[O-])c3O)cc(=O)o2)cc1OC,0.641,2.3,-14.4,3.9,-0.3,-0.2,.
CN1CCN(CC(=O)Nc2ccc(Cl)cc2Cl)CC1,0.634,1.7,12.2,-1.3,0.4,-0.7,12.1%
CC(C)Cn1c(N)c(C(=O)COC(=O)C2CCCCC2)c(=O)n(C)c1=O,0.669,0.4,-0.6,0.3,0.4,-0.7,-3.7%
CN(C)S(=O)(=O)c1ccc(C(=O)Nc2ccccc2C(=O)O)cc1,0.793,0.8,-0.1,7.5,-0.7,-1.1,21.8%
CCOc1ccccc1NC(=O)CSc1nc2cc(O)ccc2c(=O)n1-c1ccc(OC)c(OC)c1,0.68,3.7,16.6,0.1,0.5,2.8,-1.1%
CCOc1ccccc1CN1CCN(C/C=C/c2ccc(OC)cc2)CC1CCO (stereo not drawn),0.675,2.9,-4.1,1.9,0.8,-4.4,5.8%
CCOC(=O)c1cn(CC(=O)Nc2cccc(Cl)c2)nn1,0.749,3.0,0.1,1.2,1.2,-0.6,-1.0%
FC(F)Oc1ccc(NC(=S)NC23CC4CC(CC(C4)C2)C3)cc1,0.648,4.2,2.7,4.0,-0.1,3.0,.
Cc1ccc(N2CC(C(=O)NCCS(=O)(=O)N3CCN(c4ccccc4)CC3)CC2=O)cc1 (stereo not drawn),0.671,-4.1,10.4,1.5,1.2,-2.0,-6.4%

Further records.
molecule,E coli growth,HNF4A DNA FP,B2AR ag,UCH37 DUB inh,Bfl-1 A1 inh,LANA-H2B inh,Vif TR-FRET
CC(=O)c1ccccc1OCC(O)CN1CCN(CCN2C(=O)c3cccc4cccc(c34)C2=O)CC1 (stereo not drawn),0.634,-1.4,20.8,-4.0,-0.3,3.9,?
OC1(Cc2ccn[nH]2)CCCCC1,0.745,.,.,-1.1,0.4,-0.5,0.6%
O=C(Nc1ccc(Cl)cc1F)C1CCCN(C2=NS(=O)(=O)c3ccccc32)C1 (stereo not drawn),0.671,2.1,2.1,0.0,.,.,-1.9%
CCC1CN(C(=O)NCc2ccc(C)cc2)c2cc(Cl)ccc2O1 (stereo not drawn),0.697,3.8,8.0,-0.5,1.3,3.1,0.1%
O=C(Cn1c(CO)nc2ccccc21)Nc1ccc2c(c1)OCCCO2,0.688,2.0,-1.3,0.6,0.0,-1.3,1.6%
CC(C)OC(=O)Nc1ccc2c(c1)N(C(=O)CCN(C)C)c1ccccc1CC2,0.72,2.1,-5.7,5.0,0.7,-10.3,-10.5%
CCn1c(SCC(=O)N2CCCC2)nc2c(c1=O)SC(C)C2 (stereo not drawn),0.791,1.8,-2.1,5.2,0.0,3.6,-2.2%
Cc1cc2ccccc2n2c(SCC(=O)N3CCOCC3)nnc12,0.657,5.2,-24.6,-0.3,0.6,2.3,14.8%
COc1ccc(NC(=O)c2cccc(-n3cnnn3)c2)cc1,0.7,0.5,-3.5,4.0,0.2,-5.4,-0.8%
N#CCn1c(Cc2ccccc2)nc2ccccc2c1=O,0.684,5.0,-4.7,1.2,0.9,4.6,-6.2%
